# Assay outcomes deposited in PubChem BioAssay by several laboratories.
# MT1-MMP act inh – blocks activation of human MT1-MMP; AID 651647; 360,000 compounds, 0.061% hits; GFP/RFP ratio change, % at 20 µM; HT1080 RFP-PRO-GFP cells, GFP/RFP ratio fluorescence, overnight; percent of plate control window, DMSO zero;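 active = GFP/RFP ratio change of at least 30% with cell ATP level not reduced by more than half and red fluorescence within 50% of control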; note: strong numbers were not always called active
#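 Assay system – RFP-PRO-GFP reporter HT1080 cells · Compound dosing – single dose of 20 µM compound, 1% DMSO final · Incubation – overnight compound exposure at 37 °C · Measure – GFP/RFP fluorescence ratio · Benchmarks – DMSO wells and RFP-L50D-GFP cells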
# HIV Env fusion – blocks HIV Env-driven cell-cell fusion; HeLa-JRFL Env/CEM21 cell fusion, luciferase; inhibition, % at 12.3 µM; 360,000 compounds, 1.1% hits; AID 651610;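 active = mean replicate inhibition score of at least 50 and every replicate individually at or above 50; inconclusive = only one of the two criteria met; inactive = mean below 50 and not all replicates reaching 50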;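 note: 0% = plate neutral controls and 100% = maraviroc near 300 nM; one replicate is shown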
# UUG fidelity – yeast start codon fidelity modulation. 350,000 compounds, 0.13% hits. S. cerevisiae UUG-firefly luciferase reporter, luminescence/redox ratio. activity score, % at 18.7 µM. AID 602363;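 active = replicate mean at a twofold rise or more, about +100% in these data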;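 note: firefly luciferase made from a UUG start codon reports start codon fidelity; reporter light over untreated wells divided by growth signal over untreated wells; some hits fall short of that in this replicate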
# eIF4H FP inh – inhibitors of RNA binding by human eIF4H. Q15056. eIF4H fluorescence polarization binding assay. inhibition, % at 35 µM. 290,000 compounds, 0.94% hits. AID 2012;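 active = 50% or more with normal probe brightness, or confirmed in later tests; inconclusive = above 50% with abnormal brightness, or retests that disagree; inactive = below 50% or failed in later tests; about a fifth of its hits are not listed in these tables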;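 note: calls also rest on retests at 20 µM and on dose response follow-up; 0% = protein and probe with vehicle and 100% = probe without protein; strong numbers were not always called active; many hits fall short of the cut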
# CSC inhib – blocks cancer stem cells | inhibition, % at 7.5 µM | cancer stem cell-like cells viability, luminescence | 300,000 compounds, 1.1% hits;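 active = mean at 75% or more and at least half the replicates too; inconclusive = mean and replicates disagree; tested in HMLE shEcad cells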;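 note: 0% = median of negative and 100% = median of positive control wells; the first replicate is given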
# PABP polyA inh – blocks human PABP binding to poly(A) RNA; P11940; 290,000 compounds, 1% hits; inhibition, % at 35 µM; AID 2014; fluorescence polarization;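 active = 50% or more with normal probe brightness, or confirmed in later tests; inconclusive = above 50% with abnormal brightness, or retests that disagree; inactive = below 50% or failed in later tests; about a fifth of its hits are not listed in these tables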;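 note: calls also rest on retests at 20 µM and on dose response follow-up; controls were probe without protein and protein plus probe with vehicle; some compounds called inactive have numbers as strong as hits; many hits fall short of the cut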
# Target sequence (P11940 whole entry, looked up): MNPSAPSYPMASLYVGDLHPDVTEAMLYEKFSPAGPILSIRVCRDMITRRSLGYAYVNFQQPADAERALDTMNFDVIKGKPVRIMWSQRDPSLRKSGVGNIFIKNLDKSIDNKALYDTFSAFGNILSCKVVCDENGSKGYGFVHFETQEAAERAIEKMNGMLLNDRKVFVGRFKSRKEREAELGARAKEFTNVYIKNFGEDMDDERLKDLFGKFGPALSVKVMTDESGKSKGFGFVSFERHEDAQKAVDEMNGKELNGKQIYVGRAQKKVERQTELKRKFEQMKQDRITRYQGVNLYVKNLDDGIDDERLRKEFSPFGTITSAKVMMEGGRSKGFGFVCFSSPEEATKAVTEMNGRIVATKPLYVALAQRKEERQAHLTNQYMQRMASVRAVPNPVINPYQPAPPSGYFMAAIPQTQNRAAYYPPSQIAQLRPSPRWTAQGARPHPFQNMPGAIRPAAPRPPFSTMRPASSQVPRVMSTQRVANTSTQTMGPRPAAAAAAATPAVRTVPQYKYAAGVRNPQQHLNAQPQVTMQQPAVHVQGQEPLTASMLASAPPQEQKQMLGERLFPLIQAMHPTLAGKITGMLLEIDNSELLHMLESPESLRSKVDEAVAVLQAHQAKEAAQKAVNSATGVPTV
# Rce1 inh – blocks yeast Ras-converting enzyme. yeast membranes, quenched prenylated peptide cleavage fluorescence. AID 2563. calls only. Q03530. 290,000 compounds, 0.27% hits;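 active = fall in fluorescence gain of 50% or more versus controls, with final raw signal at or below 3038400; inconclusive = same 50% fall but final raw signal above 3038400; inactive = fall in fluorescence gain under 50%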;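 note: plate controls were neutral control wells for no effect and wells lacking membranes for full effect; tested at 10 µM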
# Target sequence (Q03530 whole entry, looked up): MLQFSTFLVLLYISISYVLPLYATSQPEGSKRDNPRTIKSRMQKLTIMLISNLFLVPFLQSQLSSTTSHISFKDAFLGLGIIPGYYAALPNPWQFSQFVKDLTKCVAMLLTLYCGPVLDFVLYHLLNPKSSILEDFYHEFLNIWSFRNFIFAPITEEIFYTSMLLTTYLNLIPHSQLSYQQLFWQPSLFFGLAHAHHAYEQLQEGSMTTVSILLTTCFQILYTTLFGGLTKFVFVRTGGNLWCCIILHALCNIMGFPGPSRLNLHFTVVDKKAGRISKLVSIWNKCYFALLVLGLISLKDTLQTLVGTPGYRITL
# MT1-MMP act inh RFP – also measured in MT1-MMP act inh; calls as there; RFP signal change, %; measured here: RFP expression control read;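 0 = vehicle wells; hits needed this value within 50% of zero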
# Starred values were filed as active, the others as inactive; i = inactive; ? = inconclusive; nt = no result given; + = active, no number; & = joins results of further samples; [ ] = another dose, or the depositor's remark.
SMILES,MT1-MMP act inh,MT1-MMP act inh RFP,HIV Env fusion,UUG fidelity,eIF4H FP inh,CSC inhib,PABP polyA inh,Rce1 inh
COc1ccc(NC(=O)CSc2ncn(-c3ccccc3)n2)cc1Cl,7,4,10,-11,0,nt,-2,i
COc1ccc(Cl)cc1NC(=S)N(CCN1CCOCC1)C1CCN(C(C)=O)CC1,1,7,6,-26,1,-14,2,i
O=c1[nH]c(C2CCCN(S(=O)(=O)Cc3ccccc3)C2)nc2c1nnn2Cc1cccc(Cl)c1 (stereo not given),-2,-2,-10,-15,-14,-3,-3,i
O=c1ccc(/C=C/c2ccccc2)nn1Cc1ccc(F)cc1,0,-1,12,nt,0,34,5,i
CNC(=S)NNC(=O)c1sc2cc(C(F)(F)F)cnc2c1-c1ccccn1,0,1,23,nt,-4,-7,7,i
Cc1cc(NC(=O)CSc2nnc(C3CC3)n2Cc2ccccc2)no1,2,0,nt,nt,6,-17,5,i
CNC(=O)c1csc(-c2cccs2)n1,5,6,-7,nt,-3,4,-1,i
COc1ccccc1C(CNC(=O)c1ccc(S(=O)(=O)N2CCCCC2)cc1)N(C)C (stereo not given),-1,1,11,3,nt,-8,nt,nt
CNC(=O)NC(=O)CSc1nc2ccccc2n1CCOC,-11,0,-12,-7,1,-6,13,i
CCOC(=O)Nc1nnc(-c2ccccc2OC)s1,3,-1,nt,-14,4,-10,-13,i
COc1ccc(C)cc1S(=O)(=O)N1CCN(C(=O)c2ncoc2-c2cccc(C)c2)CC1,-4,1,-5,-9,3,-6,9,i
c1ccc(CNn2nnnc2-c2ccccc2)cc1,-2,-1,3,2,1,nt,-8,i
CSc1ccc(/C=C(/NC(=O)c2ccco2)C(=O)NCc2ccco2)cc1,2,3,-9,-20,7,-9,6,i
CC(C)NC(=O)C1CCN(C2CCN(C(=O)c3scc4c3CCCC4)CC2)CC1,2,2,9,nt,0,3,-8,i
COc1ccccc1CNS(=O)(=O)c1ccc(-c2cc(C)no2)cc1,0,-16,-261,3,-12,66,-9,i
CCOc1cc(/C=C2/C(=O)ON=C2C)cc(Br)c1O,-2,8,1,-12,?,nt,?,i
CO/C=C/C#CC1(O)CCN(C)CC1,2,5,-3,-23,12,-1,15,i
O=C(Nc1ccc(N=Nc2ccccc2)c(NC(=O)C2CCCO2)c1)C1CCCO1 (stereo not given),12,-10,3,nt,-10,26,6,i
O=[N+]([O-])c1ccc(CSc2nnc(SCc3ccc(Cl)cc3)s2)cc1,-2,0,-4,-14,2,nt,-5,i
Cc1ccccc1CSc1nnc(Cn2c(=O)sc3ccccc32)n1C,6,1,8,-12,4,-6,4,i
C[C@@H]1CC=C[C@@H]2[C@H]1C(=O)N(Cc1ccccc1)[C@H]2c1cccc(Br)c1,-17,-15,14,-32,nt,nt,nt,nt
COc1ccc(-c2c([C@H]3[C@H]4C=CC[C@@H](C)[C@@H]4C(=O)N3Cc3ccccc3)ccc3ccccc23)cc1OC,1,-28,28,-7,-1,45,-5,i
CCn1cc(Br)c(C(=O)NC(=S)Nc2ccc(C(=O)OC)cc2)n1,2,6,-24,nt,-4,-11,14,i
CN(c1cccc(F)c1)c1cc2c(c3c1ccn3C)C1CCC2O1 (stereo not given),0,-6,24,-8,nt,nt,nt,nt
Cc1cccc(OCCCCN2CCNCC2)c1,4,4,-1,-9,nt,nt,nt,i
CC(C)(C)NC(=O)c1cc2c(ccc3ccccc32)oc1=O,-2,-2,4,7,-14,10,7,i
COc1ccc(C)cc1S(=O)(=O)N(C)CC(=O)NCc1ccccn1,-1,1,-9,-26,3,-16,-1,i
O=c1ccc(OCCOc2ccccc2)nn1-c1ccccc1,3,3,nt,nt,-5,-3,-2,i
Cc1ccc(C(C(=O)NC(C)(C)C)N(Cc2ccc3c(c2)OCO3)C(=O)c2ccc(CN3CCOCC3)o2)o1 (stereo not given),3,3,5,nt,-10,-7,-4,i
C/C(CS(=O)(=O)c1ccccc1)=N\O,2,1,-9,nt,1,-9,4,i
CCc1nc2ccc(C(=O)Nc3cc(-c4ccccc4)ccc3OC)cn2c1N(CC)CC(=O)N(C)C,0,-9,27,7,nt,nt,nt,nt
Cc1cc(C)c(OCC(=O)OCC(=O)NNC(=O)c2ccccc2F)c(C)c1,-2,2,-11,-7,nt,nt,nt,nt
N#C/C(=C\c1ccccc1)c1n[nH]c(Cn2cncn2)n1,-1,1,nt,-14,-7,-15,5,i
CCOC(=O)c1cccc(NC(=O)CCNS(=O)(=O)c2cc(Br)cnc2N)c1,1,0,1,-16,-3,-2,-3,i
COC(=O)c1ccccc1NC(=O)C1COc2ccccc2O1 (stereo not given),-3,-3,nt,-10,-7,5,8,i
CCOC(=O)CSc1nc2c(sc(=S)n2Cc2ccco2)c(=O)n1-c1ccccc1,-3,-7,-28,-28,-2,0,6,i
COc1ccc(C(=O)N2N=C(c3ccccc3)CC2(O)C(F)(F)F)cc1 (stereo not given),1,-2,3,nt,-6,nt,8,i
COc1ccc(S(=O)(=O)N(C)CC(=O)NCCN2CCOCC2)cc1,0,0,-10,-24,10,-24,5,i
O=C(Nc1ccccn1)C1CCN(C(=O)c2ccc(F)cc2)CC1,9,1,nt,-15,nt,-7,nt,i
CCN(C[C@H]1N[C@@](CC)(C(=O)OC)[C@H]2C(=O)N(Cc3ccccc3)C(=O)[C@@H]12)S(=O)(=O)c1ccc(F)cc1,-1,-1,53,4,nt,-7,nt,nt
COCC(C)Nc1ncnc2c1cnn2-c1ccc(Cl)cc1 (stereo not given),2,-5,nt,-7,0,-9,14,i
COCCNC(=O)C1CCN(S(=O)(=O)c2c(C)noc2/C=C/c2cccs2)CC1,-1,2,4,nt,10,-9,-3,i
c1ccc(C2=Nc3cccnc3C(c3ccccc3)=NN2)cc1,3,2,18,-15,-9,6,-16,nt
COc1cccc(NC(=O)Cn2c(=O)n(C)c(=O)c3sc4c(c32)COC(C)(C)C4)c1,3,1,-1,-7,-8,-9,-8,i
COc1ccc(CCNC(=O)c2cc3sccc3n2C)cc1OC,13,7,nt,4,-4,-2,1,i
Cc1ccc(S(=O)(=O)N2N=C3CCCCC3C2(O)C(F)(F)F)cc1 (stereo not given),-3,-2,17,nt,0,10,-7,i
CN(C)c1oc(-c2ccco2)nc1C#N,4,9,nt,nt,5,-15,-8,i
COc1cccc(NC(=S)N2CCC(C(=O)c3ccc(F)cc3)CC2)c1,2,-2,13,-25,nt,nt,nt,nt
C[C@H](CO)N1C[C@H](C)[C@H](CN(C)C(=O)Nc2ccc(C(F)(F)F)cc2)Oc2c(NC(=O)c3ccncc3)cccc2C1=O,-3,0,-1[16.7 µM],-3&-9,nt,7,nt,nt
O=C(NC1CCCc2ccccc21)c1cccc(Br)c1 (stereo not given),-5,0,2,nt,4,-26,-5,i
COc1ccc(CCn2c(N3CCN(C)CC3)nc3c2c(=O)[nH]c(=O)n3C)cc1,-2,1,nt,-16,14,-10,-2,i
C#CCSc1nnc(-c2ccccc2)c(=O)[nH]1,3,4,-21,14,-7,5,7,i
COc1ccc(C2=NOC(COC(=O)c3ccc4ccccc4n3)C2)cc1 (stereo not given),-1,2,13,nt,-7,17,-9,i
COc1ccc(C(N)=O)cc1NC(=O)CC(O)(C(F)(F)F)C(F)(F)F,0,0,3,-10,-2,3,0,i
COc1ccc(CNC(=O)Cc2csc(Nc3nc(=S)[nH]c4ccccc34)n2)cc1,3,2,14,-21,-12,-7,-1,i
COc1ccc(C(C)(NC(C)=O)c2nc(-c3cccc(C(F)(F)F)c3)cs2)cc1 (stereo not given),0,-2,-6,-8,nt,nt,nt,nt
C/C(=N\N1CCN(C2c3ccccc3-c3ccccc32)CC1)c1cccnc1,0,1,nt,-49,-14,-10,-8,i
Cc1ccc(C)c(NC(=S)NCc2cccn2C)c1,nt,nt,nt,nt,-7,-7,5,i
CC(C)c1nnc(NC(=O)C2CC(=O)N(CCc3ccc(F)cc3)C2)s1 (stereo not given),1,0,2,0,3,-11,3,i
COc1ccc(OCC(=O)NCc2cccnc2)cc1,1,1,-44,-8,7,10,16,i
# Carrying on:
SMILES,MT1-MMP act inh,MT1-MMP act inh RFP,HIV Env fusion,UUG fidelity,eIF4H FP inh,CSC inhib,PABP polyA inh,Rce1 inh
Cc1nn(C)c(C)c1NS(=O)(=O)c1ccc(OC(F)(F)F)cc1,-5,-19,39,1,nt,2,nt,i
CC(C)(C)N1C(=O)[C@H]2[C@@H](c3ccc(Br)cc3)N3C(=O)N(c4ccccc4)C(=O)[C@@]3(C)[C@H]2C1=O,-3,-8,104*,7,-4,-8,8,i
COc1ccc(S(=O)(=O)N2CCOCC2)cc1NC(=O)c1cc(=O)[nH]c2ccccc12,-4,-1,nt,-9,nt,5,nt,nt
Cc1nn(CC(=O)NCCCN2CCN(C)CC2)c(=O)c2cc(-c3ccccc3)nn12,3,5,-1,-7,-8,39,-5,i
Cc1cccc(C2NC(c3cccc(C)c3)C([N+](=O)[O-])C(C)(C)C2[N+](=O)[O-])c1 (stereo not given),-13,-14,-9,-16,3,18,1,i
CN(C)CCn1c(=S)[nH]c2ccccc2c1=O,4,8,nt,4,-6,15,2,i
COc1ccc(Cl)cc1NC(=O)c1nnn(CC(=O)Nc2ccc(C)c(C)c2)c1N,3,3,-16,-15,-7,-18,3,i
O=C1NC[C@H](CC2CCCCC2)N(CCc2cccc(F)c2)C1=O,11,5,-16,-7,nt,-4,nt,i
COc1cccc(CN(C)CC(=O)Nc2ccccc2C(=O)NC2CC2)c1,-2,5,nt,-13,nt,2,nt,nt
O=C(COc1ccc(Cl)cc1)NCc1nnc(SCC(=O)NC2CCCC2)o1,-7,-12,nt,2,3,-6,-5,i
C#CCOCCOCCOCCNc1nc(N2CCN(C(=O)[C@H](CCC(=O)O)n3cc(C(N)CC(C)C)nn3)CC2)nc(N2CCN(C(=O)[C@H](Cc3cc4ccccc4[nH]3)n3cc(C(N)CC(C)C)nn3)CC2)n1 (stereo not given in full),-4,0,nt,7,-8,3,1,i
O=C(CCc1ccccc1)N1N=C(c2ccncc2)CC1(O)C(F)(F)F (stereo not given),0,-2,-13,nt,0,7,-5,i
Cc1ccc(S(=O)(=O)N2CCC(C(=O)Nc3ccccc3N3CCCCC3)CC2)cc1C,-5,-8,18,-14,nt,5,nt,i
O=C(C1CCCN(S(=O)(=O)c2ccc(F)cc2)C1)N1CCCCCC1 (stereo not given),4,-2,-4,-5,0,-27,2,i
O=CNC(=O)c1ccccc1C(=O)O,-3,4,nt,1,0,-6,4,i
O=S(=O)(CC(CN1CCOCC1)N1CCOCC1)c1ccccc1 (stereo not given),0,3,0,nt,0,-1,-10,+
O=C(Nc1cccc(F)c1)Nc1ccnn1C1CCN(C(=O)c2ccccn2)CC1,-2,1,-1,-6,-2,-10,-2,i
CCC(=O)Nc1ccc(C(=O)N2CCN(C(=O)c3ccco3)CC2)cc1,3,3,-4,-12,-10,-6,1,i
CCOc1ccccc1Nc1nnc(SCC(=O)Nc2nc(-c3ccc(OC)cc3)cs2)s1,-1,-4,15,-14,3,-6,-2,i
CC(C)CCNC(=O)CCS(=O)(=O)c1cccc2nonc12,-1,0,-35,0,2,1,-7,i

# Single records, as listed above:
# COc1ccc(OCC(=O)NCc2cccnc2)cc1 reads MT1-MMP act inh: 1; MT1-MMP act inh RFP: 1; HIV Env fusion: -44; UUG fidelity: -8; eIF4H FP inh: 7; CSC inhib: 10; PABP polyA inh: 16; Rce1 inh: i
# C[C@@H]1CC=C[C@@H]2[C@H]1C(=O)N(Cc1ccccc1)[C@H]2c1cccc(Br)c1 reads MT1-MMP act inh: -17; MT1-MMP act inh RFP: -15; HIV Env fusion: 14; UUG fidelity: -32; eIF4H FP inh: nt; CSC inhib: nt; PABP polyA inh: nt; Rce1 inh: nt
